# GLA inh pH 4.5: alpha-galactosidase A (human) inhibition, pH 4.5 | P06280 | purified enzyme, 4-MU-alpha-Gal fluorescence, pH 4.5 | activity change, negative = inhibition, % at 105 µM | 230,000 tested, under 10 active; inconclusive = small, poorly fitted or top-dose-only inhibition, or a rising curve; inactive = flat fitted curve, though single readings scatter; no compound was filed as active;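 note: 0% = full activity with enzyme and -100% = basal without enzyme; dose as in the result columns while the protocol names 77 µM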
# Rango dissoc inh: prevents RanGTP from dissociating the Rango-importin beta complex. O95149+P62826. 0.071% of 340,000 active. Biochemical FRET Rango-importin beta, RanGTP-induced dissociation. Potency, µM (doses to about 46.1 µM), for inactives: at the highest dose activity change, negative = inhibition; active means falling FRET ratio curve, often poorly fitted, with flat reads before Ran was added; inconclusive means other falling curves, or compound fluorescence or quenching; inactive means flat or rising ratio curve;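 note: potency is the fitted concentration of half-maximal effect; % of control where 0% means no effect; nearly all actives have a fitted effect of over 45% in size; -100% = wells without RanGTP and RCC1; the record marks most hits as doubtful in a second field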
#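 Two FRET readings bracket the reaction: one 5 min after compound meets Rango–importin beta, another 45 min after RanGTP-RCC1 (0.6 uM Ran, 0.2 uM RCC1, 2 mM GTP) is added. Only the second defines inhibition.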
# Rango complex inh: inhibitors of Rango-importin beta complex formation | Q14974 | Rango CFP/YFP FRET sensor + importin beta, 45 min | Potency, µM (highest dose often 92.2 µM), for the others: at the top dose inhibition of complex formation | 0.031% of 340,000 active | AID 540263; active = rising FRET ratio curve, often small or poorly fitted; inconclusive = mostly compound fluorescence or quenching in the first reads; inactive = flat curves in all reads;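 note: potency is the fitted concentration of half-maximal effect; 0% = DMSO wells and 100% = buffer wells lacking importin beta; nearly all actives have a fitted effect of over 15% in size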
# Target sequence (Q14974 whole entry, looked up): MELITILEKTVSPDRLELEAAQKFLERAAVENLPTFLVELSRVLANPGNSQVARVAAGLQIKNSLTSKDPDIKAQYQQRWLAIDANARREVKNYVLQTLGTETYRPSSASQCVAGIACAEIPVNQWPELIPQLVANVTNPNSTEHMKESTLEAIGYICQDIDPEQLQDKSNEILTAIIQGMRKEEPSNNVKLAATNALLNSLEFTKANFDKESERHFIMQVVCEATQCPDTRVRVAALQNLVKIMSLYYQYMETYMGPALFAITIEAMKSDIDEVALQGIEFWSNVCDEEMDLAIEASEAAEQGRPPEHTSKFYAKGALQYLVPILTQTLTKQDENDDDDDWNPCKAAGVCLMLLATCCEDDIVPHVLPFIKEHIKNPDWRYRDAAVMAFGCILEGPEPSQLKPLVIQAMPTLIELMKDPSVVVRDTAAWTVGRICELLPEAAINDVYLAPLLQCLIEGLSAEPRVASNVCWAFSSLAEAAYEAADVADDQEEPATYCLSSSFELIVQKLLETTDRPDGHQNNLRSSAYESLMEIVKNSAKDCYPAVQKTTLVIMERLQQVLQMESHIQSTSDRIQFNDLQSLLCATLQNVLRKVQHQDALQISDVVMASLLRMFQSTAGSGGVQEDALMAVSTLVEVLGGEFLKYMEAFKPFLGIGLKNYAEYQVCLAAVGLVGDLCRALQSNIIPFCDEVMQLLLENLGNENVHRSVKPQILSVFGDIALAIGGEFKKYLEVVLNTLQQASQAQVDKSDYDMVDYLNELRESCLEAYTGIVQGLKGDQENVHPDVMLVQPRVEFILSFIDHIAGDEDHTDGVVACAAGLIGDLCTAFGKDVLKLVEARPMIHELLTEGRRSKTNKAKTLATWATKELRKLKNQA
#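 Inhibition scored from the CFP 486 nm/YFP 530 nm FRET ratio 45 min after adding 0.125 microM importin beta to 50 nM Rango biosensor preincubated 5 min with compound (room temperature, PBS with DTT, Tween-20, BSA). No-importin wells as positive control.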
# miR-21 reporter: miR-21 reporter, rising signal | 340,000 tested, under 10 active | HeLa miR-21 FLuc reporter, luciferase, 48 h | AID 2288 | Potency, µM (highest dose often 38.3 µM), inactives show at the top dose reporter change, positive = more light; active = well fitted rising curve with a large enough effect; inconclusive = small, poorly fitted or top-dose-only effect; inactive = no such curve, though single readings can be large or run the other way;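 note: % of control where 0% means no effect; miR-21 action dims this reporter so a rising signal means less miR-21 action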
#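 HeLa cells endogenously expressing miR-21, stably carrying CMV-driven firefly luciferase with a downstream miR-21 binding site, 2000 cells/well. Titrations up to approximately 40 uM, 48 hours; luciferase luminescence read.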
# Starred values were filed as active, the others as inactive; ? = inconclusive; nt = no result given; & = joins results of further samples; [ ] = remark or other dose.
nr	molecule	Rango complex inh	GLA inh pH 4.5	miR-21 reporter	Rango dissoc inh
1	CCSC1=N/C(=C\c2ccc(C(=O)O)cc2)C(=O)S1	0.1%	2	-9%	3%
2	OC(CN1C2=NCCN2c2ccccc21)c1ccc2c(c1)OCO2 (stereo not given)	-0.7%	-1	?	-6%
3	CN(C(=O)Nc1ccccc1)C1CCCCC1	0.4%	3	-9%	-6%
4	CCc1c(C(=O)Nc2ccc(S(=O)(=O)N3CCOCC3)cc2)csc1C	-0.1%	-26	10%	19%
5	CCc1nc2ccccc2c(NC(=O)CN2CCC(C)CC2)c1C	-3.6%	0	-12%	1%
6	O=C(Nc1cccc(S(=O)(=O)N2CCCCC2)c1)C1CCCN1S(=O)(=O)c1ccccc1F (stereo not given)	3.4%	nt	nt	2%
7	COC(=O)C1(c2ccccc2)NC(c2cccs2)C2C(=O)N(c3ccccc3)C(=O)C21 (stereo not given)	-2.7%	nt	nt	-12%
8	Cc1cc(CN(C)C(=O)C2CCC(=O)N(CCc3cccc(F)c3)C2)on1 (stereo not given)	-0.7%	nt	-1%	-15%
9	CCOC(=O)c1[nH]c2ccccc2c1NC(=O)CC(C)C	-5.0%	4	9%	21%
10	CC(=O)Nc1ccc2nc(C3CC3)n(Cc3ccc(Cl)cc3)c(=O)c2c1	0.2%	0	-58%	10%
11	O=C(NCCCn1ccnc1)c1ccc(C(F)(F)F)cc1	3.3%	nt	1%	-1%
12	Cc1nn(C)c(C)c1CNC(=O)Nc1ccc2c(c1)OCO2	-4.0%	0[21.1 µM]	-41%	-4%
13	COc1ccc(C(=O)N2CCC(n3nccc3NC(=O)C3CCOC3)CC2)cc1 (stereo not given)	-3.4%	nt	-5%	45%
14	O=C(N/N=C/c1cccs1)C(=O)N1CCCC1	-1.9%	-7	-26%	1%
15	CCC(C(=O)N1CCN(C(=O)c2ccco2)CC1)n1sc2ccccc2c1=O (stereo not given)	-3.4%	nt	-1%	11%
16	C1CNC(C23CC4CC(CC(C4)C2)C3)=N1	0.8%	-20	-1%	12%
17	COc1ccccc1Nc1nc(-c2ccc3c(c2)NC(=O)CO3)cs1	-1.3%	-4	2%	2%
18	Nc1nnc(-c2ccc(Cl)cc2)s1	-1.7%	-3	-43%	18%
19	O=C(CCNC(=O)c1ccc(Cl)cc1)Nc1c(F)c(F)cc(F)c1F	0.9%	1	2%	-2%
20	O=C(CSc1ccncc1)Nc1ccc(S(=O)(=O)Nc2nccs2)cc1	0.1%	4	0%	0%
21	O=C1NC(Cc2c[nH]c3ccccc23)C(=O)N1CCOc1ccccc1 (stereo not given)	-1.0%	1	-1%	2%
22	O=S(=O)(Nc1nc2ccccc2nc1-[n+]1cccc(N=C([O-])c2ccc(Cl)cc2)c1)c1ccccc1	7.5%	-13	4%	1%
23	CC1(C)Cc2c(sc(N)c2C#N)C(C)(C)N1	5.0%	-1	-10%	21%
24	O=C(O)c1cc([N+](=O)[O-])c(N2CCCC2)c([N+](=O)[O-])c1	-1.0%	10	-4%	7%
25	Cc1cc(-c2nnc(CCC(=O)N(C)Cc3cccc4ccccc34)o2)no1	4.9%	4	-35%	-2%
26	O=C(CNC(=O)c1ccccc1F)N/N=C/c1cc(Br)ccc1OC(=O)/C=C/c1ccco1	?	-5	24%	-7%
27	CC(/C=N/NC(=O)c1ccncc1)=C\c1ccccc1	-3.7%	-25	-29%	6%
28	CCc1nnc(N/N=C/c2ccccc2Cl)n1N	1.5%	12	-8%	-6%
29	Cc1ccc(NC(=O)CN2CCN(C(=O)c3ccco3)CC2)cc1	-1.1%	nt	0%	-3%
30	COc1ccc(-n2cc(-c3ccc(C)cc3)[n+]3c2SCC3)cc1	-2.8%	8	?	20%
31	NS(=O)(=O)c1ccc(NC(=S)NCCc2ccccc2)cc1	1.2%	4	-17%	-15%
32	O=C(CCCc1ccccc1)Nc1ccc(S(=O)(=O)N2CCOCC2)cc1	7.3%	6	3%	-7%
33	Cc1nonc1NC(=O)CSc1nnc(N)s1	-0.8%	nt	-4%	4%
34	Cc1nc(-c2ccc(Cl)cc2)sc1C(=O)CBr	0.9%	-2	-17%	7%
35	COc1ccc(NC(=O)C2CCCO2)cc1 (stereo not given)	-1.0%	-4	-33%	-6%
36	COc1ccc(OCCCC(=O)Nc2nc(-c3ccccn3)cs2)cc1	?	3	15%	-9%
37	Cc1c(NS(=O)(=O)c2ccc3c(c2)CCN3C(=O)C2CC2)c(=O)n(-c2ccccc2)n1C	0.3%	-3	2%	-4%
38	CC(=O)c1ccc(S(=O)(=O)N2CCC(c3nc4ccccc4[nH]3)CC2)cc1	-1.9%	nt	7%	-8%
39	CN(CCOc1ccccc1)C(=O)C1CCC(=O)N(CCCN2CCOCC2)C1 (stereo not given)	-3.8%	nt	-2%	6%
40	COc1cc(C(=O)NCc2ccccc2Cl)ccc1OCC(=O)N1CCOCC1	0.2%	nt	nt	7%
41	CCc1noc(C)c1C(=O)N(C)CC(=O)Nc1ccc(Cl)c(Cl)c1	?	nt	nt	-8%
42	CC1CCN(CC(O)CN2c3ccccc3Sc3ccccc32)CC1 (stereo not given)	-2.6%	nt	24%	-15%
43	Cc1ccc(-n2nc(C)c3c(C(=O)OCC(=O)N(C)C4CCS(=O)(=O)C4)cc(-c4ccccc4)nc32)cc1 (stereo not given)	-0.3%	-1	1%	0%
44	Cc1ccc(S(=O)(=O)N(C)c2ccc(OC(=O)c3ccc(=O)[nH]c3)cc2)cc1	2.2%	-8	1%	8%
45	COc1ccc(-c2ccc(S(=O)(=O)n3nc(OC(=O)c4cccs4)cc3N)cc2)cc1	-2.9%	0	0%	31%
46	CC(=O)Nc1ccc(SCC(=O)NCC2(N3CCCCC3)CCCCC2)cc1	0.2%	nt	nt	1%
47	CC1CC(C)CN(S(=O)(=O)N2CCC(C(=O)NCc3ccco3)CC2)C1 (stereo not given)	-1.2%	4	-1%	-2%
48	O=C(Nc1ccccc1Oc1cccnc1)C1CCCN(Cc2ccc(F)cc2)C1 (stereo not given)	3.1%	nt	0%	4%
49	CN1C(=S)SC(/[N+]([O-])=C\c2ccccc2F)C1(C)C (stereo not given)	0.4%	0	0%	3%
50	COc1ccc(/C(=N\O)c2nccc3cc(OC)c(OC)cc23)cc1OC	-2.1%	0	0%	11%
51	COc1ccccc1CNC(=O)C1CCN(C(=O)c2sccc2-n2cccc2)CC1	2.7%	nt	-1%&-5%	-7%
52	Cc1csc(NC(=O)c2ccc(Cn3nc(C)c(Br)c3C)o2)n1	2.6%	nt	27%	11%
53	O=S(=O)(NCCOCC(F)(F)C(F)F)c1ccc2oc3ccccc3c2c1	-1.9%	-6	9%	20%
54	Cn1c(CN2CCCC2)nc2cc(NC(=O)c3ccco3)ccc21	-2.1%	5	-37%	-6%
55	COc1ccc(C(=O)Oc2ccc(Br)cc2C(=S)N2CCOCC2)cc1	0.6%	nt	-2%	-14%
56	CCCCNc1c(-c2ccc(-c3cccc(Cl)c3)cc2)nc2ccccn12	?	nt	nt	?
57	CCOc1ccc(OCCC(=O)N(CC)CC(=O)Nc2c(F)cccc2F)cc1	-0.3%	nt	nt	-7%
58	COc1cc2[nH]c(=S)n(C3CCN(Cc4ccccc4)CC3)c(=O)c2cc1OC	5.6%	-17	0%	-4%
59	CCO[C@@H]1OC(C(=O)Nc2ccccc2)=C[C@H](c2csc3ccccc23)[C@H]1CCCO	-1.4%	-15	0%	1%
60	Cc1ccc(C(=O)Nc2ccc3c(c2)OCCO3)o1	-0.7%	3	-12%	11%

# (further entries)
nr	molecule	Rango complex inh	GLA inh pH 4.5	miR-21 reporter	Rango dissoc inh
61	CCCCNc1cc(C)oc(=O)c1C(C)=O	0.2%	6	3%	-6%
62	Cc1ccc(S(=O)(=O)N(C)CC(=O)Nc2cccc(C)n2)cc1	1.6%	-4	1%	-3%
63	CC(=O)Nc1ccc(NC(=O)C(C)OC(=O)C23CC4CC(CC(Cl)(C4)C2)C3)cc1 (stereo not given)	4.3%	nt	nt	-11%
64	S=c1nc(-c2cc(Cl)ccc2Cl)[nH][nH]1	0.9%	5	2%	-6%
65	O=C(Nc1cc(C(F)(F)F)ccc1N1CCOCC1)c1ccc(Br)o1	2.4%	-5	-6%	15%
66	CC(C)(C)S(=O)(=O)N1C[C@H]2C(=CC[C@@H]3C(=O)N(c4ccccc4)C(=O)[C@@H]32)[C@H]1CCO	-2.2%	nt	nt	-15%
67	O=C(O)CCc1ccc(-c2ccccc2)n1CC(=O)O	0.8%	4	-6%	-6%
68	Cc1cc(C)n(CCN(C)Cc2nc(Cc3ccccc3F)no2)n1	-0.3%	6	8%	-8%
69	COc1cccc(C2OC(=O)c3ccccc3N2C(C)=O)c1OC(C)=O (stereo not given)	0.6%	-2	-5%	1%
70	O=C(NCC1CCN(S(=O)(=O)c2ccccc2)CC1)Nc1ccc(F)cc1	0.8%	-9	9%	14%
71	Cc1cccc(N2CCN(C(=O)/C=C/c3ccco3)CC2)c1C	?	-10	-25%	?
72	COc1ccc(/C=C/C(=O)Nc2ccc3c(c2)OCCO3)cc1OC	-1.4%	-11	-29%	-6%
73	COc1ccccc1C(=O)N(C)c1nnc(-c2ccccc2)s1	3.0%	nt	-38%	-8%
74	CCOC(=O)c1sc2nc(C)[nH]c(=O)c2c1C	-0.4%	0	-14%	7%
75	O=C(NCc1ccc2[nH]c3c(c2c1)CCCC3)c1ccc(S(=O)(=O)N2CCCC2)cc1	?	-29	0%	-17%
76	CC1CC(NC(=O)CC#N)CC(C)(C)C1 (stereo not given)	-4.5%	-2	0%	19%
77	COc1ccc(S(=O)(=O)c2ccc(OC)cc2)cc1	-3.4%	-4	-2%	-2%
78	O=C(Nc1c(C(=O)Nc2ccccc2)cnn1-c1ccccc1)c1ccco1	-2.4%	-3	-9%	-9%
79	CC(NS(=O)(=O)c1ccccc1Cl)C1CC2CCC1C2 (stereo not given)	0.7%	nt	5%	-10%
80	CC(Oc1ccccc1)C(=O)N=C1SC2CS(=O)(=O)CC2N1c1ccccc1 (stereo not given)	-0.9%	nt	-2%	13%
81	O=C(NCCCn1ccnc1)c1cc2ccccc2o1	-0.2%	6	-4%	9%
82	CCOC(=O)C(C)n1nc(/C=C/c2ccc(OC)cc2)ccc1=O (stereo not given)	1.8%	5	0%	-7%
83	COC(=O)c1cc(NC(=O)c2c(Cl)nc3sccn23)cc(C(=O)OC)c1	-3.4%	-3	-3%	-4%
84	CCN(CC)C(=O)c1cc2c(=O)oc3ccccc3c2s1	1.3%	2	-6%	-22%
85	CN1CCN(CC(=O)NC(=O)NC2CCCCC2)CC1	1.1%	nt	nt	7%
86	Brc1ccc(CSc2nnc(-c3ccco3)o2)cc1	-0.8%	4	-50%	-4%
87	Cc1ccc(S(=O)(=O)Nc2nncs2)cc1	-2.7%	1	-4%	7%
88	O=C(NCC1(c2ccccc2)CCCC1)c1cccc(Br)c1	1.7%	4	11%	0%
89	O=C(COC(=O)CNC(=O)c1ccc(Cl)cc1)Nc1cccc(S(=O)(=O)N2CCCC2)c1	-0.3%	3	4%	0%
90	CC(=O)c1sc(NC(=O)c2ccc(C)c(C)c2)nc1C	-1.0%	-5	-61%	17%
91	O=C(Nc1cc(N2CCOCC2)ncn1)Nc1cccc2ccccc12	-1.7%	3	-30%	-17%
92	CC(C)(C)C(=O)/C=C(N)/C=C/c1ccccc1	-9.9%	-7	-46%	-5%
93	COCCn1c(NC(=S)NC(=O)C2CC2)cc(=O)[nH]c1=O	0.9%	10	1%	-13%
94	CSCC(C)N1CCC(n2nccc2NC(=O)c2ccc3c(c2)OCO3)CC1 (stereo not given)	-2.9%	nt	-3%	-8%
95	CN1CCN(C(=O)CN(c2ccccc2)S(=O)(=O)N(C)C)CC1	?	8	-4%	-3%
96	CCN(CC)c1ccc(NC(=O)CCN2C(=O)c3ccccc3S2(=O)=O)c(C)c1	-3.1%	nt	nt	-9%

# A second format for 2 compounds above:
cpd	Rango complex inh	GLA inh pH 4.5	miR-21 reporter	Rango dissoc inh	structure
91	-1.7%	3	-30%	-17%	O=C(Nc1cc(N2CCOCC2)ncn1)Nc1cccc2ccccc12
94	-2.9%	nt	-3%	-8%	CSCC(C)N1CCC(n2nccc2NC(=O)c2ccc3c(c2)OCO3)CC1 (stereo not given)

# High-throughput results as filed in PubChem BioAssay.

# Some of the compounds tested; count on the stated rates, not on these rows.
